Sa growth 42C = S. aureus growth inhibition at 42 and 30 °C, primary screen, LtaS inhibitor project, RN4220, two temperatures | OD600, 20 h, 42 °C; stronger effect = lower value | relative growth, % (no concentration beside the values) | hit rate 0.53% among 170,000 | AID 720641, 2013;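 active = growth at 42 °C up to 50% and 20 or more points under that at 30 °C, or under 10% at both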;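 note: 300 nL library stock went into each well; scaled to the means of positive and negative controls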
HCMV UL50-53 inh = inhibitors of HCMV UL50-UL53 interaction, biochemical, HTRF | normalized percent inhibition | inhibition, % (concentration not given with the values) | hit rate 0.15% among 190,000;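 active = both replicates at 50% or more, plus weaker picks with an unusually low signal ratio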;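 note: stock transfer was 100 nL into about 20 µL; 0% = negative control wells and 100% = wells with untagged competitor protein; inactives centre near -12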
GIV-Gai inh = inhibitors of GIV peptide binding to Galpha-i3, primary screen, biochemical, fluorescence polarization, FITC-GIV GBA peptide, rat Galphai3; Guanine nucleotide-binding protein G(i) subunit alpha-3 (Rattus norvegicus), P08753; 90 min; stronger effect = lower value; scaled: aluminum fluoride 0%, vehicle 100%; percent of control (FP), % (test concentration not listed); hit rate 0.42% among 210,000; AID 1224905, 2016;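 active = replicate mean at 85% of control or lower, very high polarization wells dropped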;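 note: wells of about 15 µL received 100 nL stock; the first replicate is given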
Target sequence (P08753 whole entry, looked up): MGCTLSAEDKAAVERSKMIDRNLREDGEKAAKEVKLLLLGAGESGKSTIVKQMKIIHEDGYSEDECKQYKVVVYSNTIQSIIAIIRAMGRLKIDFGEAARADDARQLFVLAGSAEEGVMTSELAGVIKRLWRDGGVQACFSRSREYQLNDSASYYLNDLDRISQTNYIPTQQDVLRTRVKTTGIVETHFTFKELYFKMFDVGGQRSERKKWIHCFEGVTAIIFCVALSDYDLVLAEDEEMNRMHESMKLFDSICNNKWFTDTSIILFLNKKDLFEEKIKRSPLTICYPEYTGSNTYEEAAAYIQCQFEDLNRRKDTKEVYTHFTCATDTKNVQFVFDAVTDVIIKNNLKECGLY
Sa growth 42C second temp = recorded beside Sa growth 42C, whose call it bears; relative growth, %; measured here: growth at 30 °C;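 optical density after 20 h as mean of two plates; 100% = untreated growth and lower means inhibition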
* hit, by the source's call; & = joins results of further samples.

The opening four compounds (preview)
Results for CCn1nccc1C1CCCN1S(=O)(=O)c1ccc(C(C)C)cc1 (centres undefined) ?
HCMV UL50-53 inh: -24; GIV-Gai inh: 98

Results for COc1cc2c(cc1OC)-c1c(C#N)c(-c3ccc4c(c3)OCO4)c(C(=O)c3ccccc3)n1CC2 ?
Sa growth 42C: 98; HCMV UL50-53 inh: -16; GIV-Gai inh: 105; Sa growth 42C second temp: 97

How did CC1=C(C#N)C(c2cccnc2)C2=C(CC(C)(C)CC2=O)N1 (centres undefined) do in these assays?
Sa growth 42C: 96; HCMV UL50-53 inh: -39; GIV-Gai inh: 101; Sa growth 42C second temp: 92

Results for COc1cccc(CNC(=O)CCS(=O)(=O)c2cc3c(cc2C)NC(=O)CO3)c1 ?
Sa growth 42C: 122; GIV-Gai inh: 106; Sa growth 42C second temp: 100

This part in full (from the top)
Results for CCn1nccc1C1CCCN1S(=O)(=O)c1ccc(C(C)C)cc1 (centres undefined) ?
HCMV UL50-53 inh: -24; GIV-Gai inh: 98

Results for COc1cc2c(cc1OC)-c1c(C#N)c(-c3ccc4c(c3)OCO4)c(C(=O)c3ccccc3)n1CC2 ?
Sa growth 42C: 98; HCMV UL50-53 inh: -16; GIV-Gai inh: 105; Sa growth 42C second temp: 97

How did CC1=C(C#N)C(c2cccnc2)C2=C(CC(C)(C)CC2=O)N1 (centres undefined) do in these assays?
Sa growth 42C: 96; HCMV UL50-53 inh: -39; GIV-Gai inh: 101; Sa growth 42C second temp: 92

Results for COc1cccc(CNC(=O)CCS(=O)(=O)c2cc3c(cc2C)NC(=O)CO3)c1 ?
Sa growth 42C: 122; GIV-Gai inh: 106; Sa growth 42C second temp: 100

What do the screens show for `NC(=O)c1sc2nccc(Nc3ccccc3)c2c1N`?
Sa growth 42C: 95; HCMV UL50-53 inh: -61; GIV-Gai inh: 100; Sa growth 42C second temp: 59

How did O=C(O)C1OCCc2ccccc21 (centres undefined) do in these assays?
Sa growth 42C: 101; HCMV UL50-53 inh: -59; GIV-Gai inh: 98; Sa growth 42C second temp: 77

What do the screens show for `O=S1(=O)c2ccccc2Nc2ccccc21`?
Sa growth 42C: 105; HCMV UL50-53 inh: -12; GIV-Gai inh: 109; Sa growth 42C second temp: 81

Results for Cc1cc(N2CCC(C(=O)Nc3ccccc3Cl)CC2)n2nc(C)c(-c3ccc(Cl)cc3)c2n1 ?
Sa growth 42C: 91; HCMV UL50-53 inh: -36; GIV-Gai inh: 103; Sa growth 42C second temp: 88

What do the screens show for `CNc1nc(SC)nc(N(C)C#N)n1`?
Sa growth 42C: 58; HCMV UL50-53 inh: 3; GIV-Gai inh: 107; Sa growth 42C second temp: 94

How did Cc1ccc(/C=C/c2nc(Cn3c(C)nc4ccccc4c3=O)no2)cc1 do in these assays?
HCMV UL50-53 inh: -27; GIV-Gai inh: 103

What do the screens show for `COc1cc(C(=O)Oc2c(Sc3ccccc3)c(C)nn2-c2ccccc2)cc(OC)c1OC`?
Sa growth 42C: 77; HCMV UL50-53 inh: -2; GIV-Gai inh: 100; Sa growth 42C second temp: 57

How did O=C(c1cn(CC(=O)N2CCOCC2)c2ccccc12)C1CC1 do in these assays?
Sa growth 42C: 103; HCMV UL50-53 inh: -8; GIV-Gai inh: 101; Sa growth 42C second temp: 87

What do the screens show for `CC[C@H](C)C(=O)O[C@H]1C[C@@H](C)C=C2C=C[C@H](C)[C@H](CC[C@@H]3C[C@@H](O)CC(=O)O3)[C@H]21`?
Sa growth 42C: 89&101; HCMV UL50-53 inh: -15&-2&-8&-4&-27&-72; GIV-Gai inh: 107; Sa growth 42C second temp: 91&99

Results for CCc1cccc(NC(=O)Cn2c(=O)n3nc(-c4cccc(F)c4)nc3c3ccccc32)c1 ?
Sa growth 42C: 103; GIV-Gai inh: 96; Sa growth 42C second temp: 90

Results for Cc1c(CCNC(=O)c2cc(S(=O)(=O)N(C)C)c(Cl)cc2Cl)c2ccccc2n1C ?
Sa growth 42C: 81; HCMV UL50-53 inh: -11; Sa growth 42C second temp: 81

What do the screens show for `Cc1noc2nc(CCC(=O)O)nc(N3CCCCC3)c12`?
HCMV UL50-53 inh: -25; GIV-Gai inh: 96

Results for CCN(c1ccccc1)S(=O)(=O)c1nnc(NC(=O)COc2cccc(C)c2)s1 ?
Sa growth 42C: 101; HCMV UL50-53 inh: 10; GIV-Gai inh: 106; Sa growth 42C second temp: 103

What do the screens show for `Cc1cc(C=Nc2ccc(Cl)cc2O)c(C)n1C`?
Sa growth 42C: 94; HCMV UL50-53 inh: -24; GIV-Gai inh: 109; Sa growth 42C second temp: 25

Results for COc1ccc(-c2nnc3sc(NC(C)=O)nn23)cc1OC ?
Sa growth 42C: 98; HCMV UL50-53 inh: -16; GIV-Gai inh: 100; Sa growth 42C second temp: 89

What do the screens show for `Cc1cc(=O)[nH]c(N/N=C/C2=C(N3CCOCC3)C(=C\c3ccc(Cl)cc3)/CC2)n1`?
Sa growth 42C: 112; HCMV UL50-53 inh: -6; Sa growth 42C second temp: 87

Results for N#CCCn1cc(C(CC(=O)c2ccc3c(c2)CCCC3)C(=O)O)c2ccccc21 (centres undefined) ?
Sa growth 42C: 142; HCMV UL50-53 inh: -5; GIV-Gai inh: 104; Sa growth 42C second temp: 92

What do the screens show for `CCCN(CC1CC1)C(=O)CSc1nc2ccccc2n1C`?
Sa growth 42C: 107; HCMV UL50-53 inh: -31; Sa growth 42C second temp: 96

How did Cc1ccc(C)c(N2CCN(C(=O)c3ccc4c(=O)n(CCc5ccccc5)c(=O)[nH]c4c3)CC2)c1 do in these assays?
Sa growth 42C: 96; HCMV UL50-53 inh: -7; GIV-Gai inh: 106; Sa growth 42C second temp: 88

What do the screens show for `Cc1ccc(-c2ccc(N3CCCC(C(=O)NCc4ccc5c(c4)OCO5)C3)nn2)cc1` (centres undefined)?
HCMV UL50-53 inh: 3; GIV-Gai inh: 102

What do the screens show for `CCOC(=O)C1=CS/C(=C2/C(=S)C(C)(C)N(C(=O)CC(C)C)c3ccc(OCC)cc32)S1`?
Sa growth 42C: 117; GIV-Gai inh: 95; Sa growth 42C second temp: 95

Results for CCN(CC)CCCNC(=O)c1nn(-c2ccc(OC)c(Cl)c2)c(=O)c2c1c1ccccc1n2C ?
Sa growth 42C: 101; HCMV UL50-53 inh: -56; GIV-Gai inh: 103; Sa growth 42C second temp: 87

What do the screens show for `O=C1CSCC(=O)N1c1ccc(Cl)cc1C(F)(F)F`?
HCMV UL50-53 inh: 9; GIV-Gai inh: 102

How did COCCNC(=O)Cn1nnc(-c2ccc(OC)cc2)n1 do in these assays?
Sa growth 42C: 113; HCMV UL50-53 inh: -19; GIV-Gai inh: 97; Sa growth 42C second temp: 78

How did COC(=O)c1ccc(OC)c(Cn2c(=O)n(-c3cccc(Cl)c3)c(=O)c3c4c(sc32)CN(C(C)=O)CC4)c1 do in these assays?
Sa growth 42C: 95; HCMV UL50-53 inh: -10; GIV-Gai inh: 109; Sa growth 42C second temp: 91

Results for Cc1ccc(CCNC(=O)CSCc2ccc(F)cc2)cc1 ?
Sa growth 42C: 101; HCMV UL50-53 inh: -10; GIV-Gai inh: 101; Sa growth 42C second temp: 106

How did CCCn1c(=O)c2ccc(C(=O)NC(C)C)cc2n2c(SCC(=O)NCc3ccccc3)nnc12 do in these assays?
HCMV UL50-53 inh: -35; GIV-Gai inh: 106

How did Cc1ccc(NC(=O)CNc2ccccc2)cc1Cl do in these assays?
Sa growth 42C: 101; HCMV UL50-53 inh: 0; GIV-Gai inh: 104; Sa growth 42C second temp: 99

Results for S=c1nc2c(n[nH]1)c1ccccc1n2Cc1ccccc1 ?
Sa growth 42C: 62; HCMV UL50-53 inh: -22; Sa growth 42C second temp: 78

Results for CC(CN1CCCC1)OC(=O)c1ccc(Br)cc1 (centres undefined) ?
Sa growth 42C: 108; HCMV UL50-53 inh: -2; GIV-Gai inh: 105; Sa growth 42C second temp: 83

Results for CC(C)Cc1nnc2sc(-c3cc4ccccc4[nH]3)nn12 ?
HCMV UL50-53 inh: -1; GIV-Gai inh: 104

Results for COc1cccc(CSc2nc3ccncc3n2Cc2ccccc2)c1 ?
HCMV UL50-53 inh: -23; GIV-Gai inh: 99

What do the screens show for `COc1cccc(S(=O)(=O)N2CCN(Cc3nc4cccnc4n3-c3ccccc3)CC2)c1`?
HCMV UL50-53 inh: -14; GIV-Gai inh: 103

Results for CCc1ccc(C2=C(C)C(=O)N(CC(=O)Nc3ccc(C(C)C)cc3)S2(=O)=O)cc1 ?
HCMV UL50-53 inh: -12; GIV-Gai inh: 97

Results for CCN(CC)C(=O)c1sc(NC(=O)C(C)C)c(C#N)c1C ?
Sa growth 42C: 92; HCMV UL50-53 inh: -22; GIV-Gai inh: 98; Sa growth 42C second temp: 94

Results for COc1ccc(-c2ccc(OC)cc2C(=O)NN)cc1 ?
Sa growth 42C: 66; GIV-Gai inh: 100; Sa growth 42C second temp: 69

What do the screens show for `O=C1Nc2ccccc2C1(O)C/C(=N/O)c1ccco1` (centres undefined)?
Sa growth 42C: 125; GIV-Gai inh: 101; Sa growth 42C second temp: 82

Results for CCn1ccc2c(OCC(=O)NC3CCCC3)cccc2c1=O ?
Sa growth 42C: 102; HCMV UL50-53 inh: -4; GIV-Gai inh: 109; Sa growth 42C second temp: 98

Results for COc1ccc(N2C(=O)C=C(c3ccc(F)cc3)C2/C=N/O)cc1 (centres undefined) ?
HCMV UL50-53 inh: -34; GIV-Gai inh: 105

How did CCOC(=O)c1nc(NC2CCCC2)c2c(-c3ccc(F)cc3)noc2n1 do in these assays?
HCMV UL50-53 inh: -4; GIV-Gai inh: 105

How did C(=Nc1ccc(-c2cnco2)cc1)c1cccnc1 do in these assays?
Sa growth 42C: 105; HCMV UL50-53 inh: -4; GIV-Gai inh: 101; Sa growth 42C second temp: 89

What do the screens show for `Cc1nc(N2CCOCC2)c2c(C(=O)NCCc3ccccc3)c(C)oc2n1`?
Sa growth 42C: 99; GIV-Gai inh: 102; Sa growth 42C second temp: 95

What do the screens show for `O/N=C/C=C/c1cn(Cc2ccccc2)nn1`?
Sa growth 42C: 86; HCMV UL50-53 inh: -97; Sa growth 42C second temp: 90

How did CSc1ncc(C(=O)O)c(C(F)(F)F)n1 do in these assays?
Sa growth 42C: 87; GIV-Gai inh: 96; Sa growth 42C second temp: 91

How did CC(=O)NCCc1nc2cc(NC(=O)c3ccc(C)cc3)ccc2n1C do in these assays?
HCMV UL50-53 inh: -18; GIV-Gai inh: 102

What do the screens show for `COc1ccc(NC(=O)CC2C(=O)N(c3ccccc3)C(=O)N2CCc2sccc2C)cc1` (centres undefined)?
Sa growth 42C: 105; HCMV UL50-53 inh: -24; GIV-Gai inh: 102; Sa growth 42C second temp: 76

How did COc1ccc(Br)cc1CNC(=O)c1cc(=O)[nH]c2ccc(S(=O)(=O)N3CCCCC3C)cc12 (centres undefined) do in these assays?
Sa growth 42C: 128; GIV-Gai inh: 103; Sa growth 42C second temp: 96

Results for O=C(c1ccc2c(c1)CCCN2S(=O)(=O)c1ccccc1)N1CCN(c2cccc(Cl)c2)CC1 ?
HCMV UL50-53 inh: -20; GIV-Gai inh: 104

Results for Cc1ccc(CSCCC(=O)N2CCN(c3cccc(C)c3C)CC2)cc1 ?
Sa growth 42C: 77; GIV-Gai inh: 106; Sa growth 42C second temp: 90

How did CCC(C)NC(=O)c1ccc2c(Cl)c3c(nc2c1)CCC3 (centres undefined) do in these assays?
Sa growth 42C: 97; GIV-Gai inh: 103; Sa growth 42C second temp: 91

How did O=C(OCc1csc(-c2ccccc2)n1)c1cccs1 do in these assays?
Sa growth 42C: 87; HCMV UL50-53 inh: -8; Sa growth 42C second temp: 64

How did Cc1ccc(C(=O)Nc2cc(-c3noc(C4CCC4)n3)sc2C)s1 do in these assays?
HCMV UL50-53 inh: -6; GIV-Gai inh: 113

Results for O=C(Nc1cc(Cl)ccc1Cl)C1COc2ccccc2O1 (centres undefined) ?
Sa growth 42C: 96; HCMV UL50-53 inh: 2; Sa growth 42C second temp: 97

Results for CC1(C)CC(Nc2ncnc3sccc23)CC(C)(C)N1 ?
Sa growth 42C: 75; HCMV UL50-53 inh: -29; Sa growth 42C second temp: 90

Results for O=C1CC(c2nc3ccccc3n2CCC2CCCCC2)CN1c1ccccc1Cl (centres undefined) ?
Sa growth 42C: 97; HCMV UL50-53 inh: -19; GIV-Gai inh: 106; Sa growth 42C second temp: 88

How did COC(=O)c1cc2ccc(OC)c(OC)c2c(=O)s1 do in these assays?
Sa growth 42C: 113; GIV-Gai inh: 103; Sa growth 42C second temp: 82

Results for CCN(CC)c1ccc2cc(C(=O)Nc3cccc(C(F)(F)F)c3)c(=O)oc2c1 ?
HCMV UL50-53 inh: -5; GIV-Gai inh: 102

What do the screens show for `Cc1nnc(-n2cnc3ccccc32)c2ccccc12`?
Sa growth 42C: 106; HCMV UL50-53 inh: -8; GIV-Gai inh: 100; Sa growth 42C second temp: 92

Results for O=S(=O)(Nc1nc2n(n1)C(c1ccc(F)cc1)C=C(c1ccccc1)N2)c1ccccc1 (centres undefined) ?
Sa growth 42C: 100; HCMV UL50-53 inh: -26&-60; GIV-Gai inh: 98&97; Sa growth 42C second temp: 83

From PubChem
